Compound activity from PubChem BioAssay.
Lassa entry inh: blocks Lassa virus binding to or entry into cells; Lassa virus pseudotype entry inhibition, cell reporter; control for the full effect not named in the record; Potency, µM (titrated, usually from 37.9 µM), for inactives: top-dose activity change, negative = inhibition, usual class: inhibitors; 1.2% of 300,000 active; active means well fitted inhibition curve with a large enough effect; inconclusive means small, poorly fitted or top-dose-only effect, or effect the other way; inactive means flat fitted curve, though single readings scatter; tested in HEK293 cells; also: % is scaled to controls: 0 for no effect and ±100 for the full control effect; nearly all actives have a fitted effect of over 50% in size; luciferase read-out
Marburg entry inh: blocks Marburg virus binding to or entry into cells; Potency, µM (series often up to 37.8 µM), without a hit: top-dose activity change, negative = inhibition, hits mostly inhibitors; AID 540276; Marburg virus pseudotyped entry inhibition, cell reporter; control for the full effect not named in the record; about a third of the inactives were read at about 46 µM; 1.8% of 300,000 active; active = well fitted inhibition curve with a large enough effect; inconclusive = small, poorly fitted or top-dose-only effect, or effect the other way; inactive = flat fitted curve, though single readings scatter; tested in HEK293 cells; about a fifth of its hits are not listed in these tables; also: % is scaled to controls: 0 for no effect and ±100 for the full control effect; luciferase read-out
Cruzain noTriton: cruzain (T. cruzi) inhibition without detergent | purified cruzain, Z-FR-AMC fluorescence, no detergent | AID 1476 | P25779 | 2.3% of 200,000 active | Potency, µM, for the others: max response, negative = inhibition, hits mostly inhibitors;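 also: plate controls were enzyme without inhibitor for no effect and buffer without enzyme for full effect; nearly all actives have a fitted effect of over 40% in size; top concentration of the series not given in the record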
Target sequence (P25779 123-467 limits assumed): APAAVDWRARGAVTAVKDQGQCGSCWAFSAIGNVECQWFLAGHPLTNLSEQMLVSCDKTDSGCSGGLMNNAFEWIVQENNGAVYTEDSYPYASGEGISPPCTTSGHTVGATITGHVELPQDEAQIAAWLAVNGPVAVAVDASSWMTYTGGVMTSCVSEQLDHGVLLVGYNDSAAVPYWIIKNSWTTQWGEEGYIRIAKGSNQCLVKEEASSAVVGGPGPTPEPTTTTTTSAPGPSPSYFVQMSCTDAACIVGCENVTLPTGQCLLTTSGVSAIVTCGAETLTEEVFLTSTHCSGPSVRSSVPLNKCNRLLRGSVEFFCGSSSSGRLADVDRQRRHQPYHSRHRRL
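Purified cruzain at 1.5 nM, pre-incubated 15 min with compound at room temperature in 100 mM sodium acetate pH 5.5, 5 mM DTT, 0.00005% Triton X-100. Reaction started with 2 uM Z-FR-AMC; AMC fluorescence increase over 60 s gives rate.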
Cruzain inh Det: cruzain (T. cruzi) inhibition with detergent; P25779; purified cruzain, Z-FR-AMC fluorescence, 0.01% Triton; Potency, µM, for inactives: max response, negative = inhibition, hits mostly inhibitors; 0.43% of 200,000 active;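 also: plate controls were neutral wells for no effect and buffer without enzyme for full effect; nearly all actives have a fitted effect of over 40% in size; top concentration of the series not given in the record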
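Read-out: AMC fluorescence (360 nm excitation, 450 nm emission), four reads over 2 min, first-to-third difference used. Conditions: cruzain 1.5 nM, Z-FR-AMC 2 uM, pH 5.5 acetate, 5 mM DTT, 0.01% Triton X-100.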
SARS PLpro yeast: inhibitors of SARS-CoV papain-like protease in yeast; S. cerevisiae expressing SARS-CoV PLpro, growth rescue; control for the full effect not named in the record; AID 485353; Potency, µM (series often up to 32.9 µM), for inactives: top-dose activity, positive = growth rescue; 0.19% of 330,000 active; active means well fitted rising curve with a large enough effect; inconclusive means small, poorly fitted or top-dose-only effect; inactive means no such curve, though single readings can be large or run the other way; also: 0% is about no effect; nearly all actives have a fitted effect of over 55% in size; growth read by luminescence after 48 h
RE007 growth inh: less growth of the S. pombe RE007 Vpr strain; S. pombe RE007 Vpr strain, BacTiter-Glo ATP luminescence, 24 h; control for the full effect not named in the record; Potency, µM (top dose mostly 92.2 µM), for the others: at the highest dose activity change, negative = less growth; 0.21% of 360,000 active; active = well fitted falling curve with a large enough effect; inconclusive = small, poorly fitted or top-dose-only effect; inactive = no such curve, though single readings can be large or run the other way;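 also: % is scaled to controls: 0 for no effect and ±100 for the full control effect; nearly all actives have a fitted effect of over 50% in size; the assay follows cell death caused by Vpr and the record does not say whether a fall means rescue or toxicity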
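Fission yeast strain RE007, carrying one chromosomally integrated HIV-1 vpr copy, was seeded at OD 0.01 in PMG+AL medium with 23 nL pinned compound. After 24 h at 30 °C and 99% humidity, viability was read by BacTiter-Glo luminescence.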
NS1 inh: blocks influenza NS1 protein function; Potency, µM (highest dose often 46.1 µM), for the others: top-dose activity, positive = more growth; 0.4% of 270,000 active; S. cerevisiae slowed by influenza A NS1, growth recovery by OD600; active means well fitted rising curve with a large enough effect; inconclusive means small, poorly fitted or top-dose-only effect; inactive means no such curve, though single readings can be large or run the other way; also: nearly all actives have a fitted effect of over 50% in size
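Read-out: OD600 growth recovery of NS1-expressing budding yeast. Cells grown overnight at 30C in -URA glucose medium, washed, resuspended and diluted 1:100 in 2% galactose assay medium, pH 6.0. Same strain lacking NS1 served as positive control.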
2A StopGo: lowers the luciferase signal of an FMDV 2A StopGo reporter | 1.2% of 410,000 active | human cells with a luciferase reporter of 2A StopGo recoding; control for the full effect not named in the record | Potency, µM (top dose mostly 57.9 µM), without a hit: at the highest dose signal change, negative = less light; active = well fitted falling curve with a large enough effect; inconclusive = small, poorly fitted or top-dose-only effect; inactive = no such curve, though single readings can be large or run the other way; tested in HEK293T cells; also: % is scaled to controls: 0 for no effect and ±100 for the full control effect; nearly all actives have a fitted effect of over 45% in size; luciferase light after 4 h
Starred values were filed as active, the others as inactive; u = inconclusive; x = not tested or not shown; & = joins results of further samples; [ ] = another dose, or the depositor's remark. Unless noted, calls follow the shape of the dose curve; as a rule, active = well fitted curve in the direction sought with a large enough effect; inconclusive = small, poorly fitted or top-dose-only effect, or another doubt; inactive = no such curve, though single readings can be large; an effect the other way counts as inactive or inconclusive. Potency is read from the fitted curve at half-maximal effect. Compounds were not picked by outcome; 4.5% or so of the library scored in one or more.

SMILES | Lassa entry inh | Marburg entry inh | Cruzain noTriton | Cruzain inh Det | SARS PLpro yeast | RE007 growth inh | NS1 inh | 2A StopGo
Cc1ccccc1C(=O)NNC(=O)c1cc(N)cc([N+](=O)[O-])c1 | -0.5% | u | -5.9% | -0.2% | -8.2% | -1.3% | 5.9% | 0.0%
COc1ccc2c(c1[N+](=O)[O-])CCC/C2=N/OC(=O)c1ccccc1SC | -13.5% | u | u | 0.5% | 3.1% | 11.6% | 14.5% | -22.5%
CC(C)n1nnnc1-c1ccc(Cl)cc1 | -2.9%[46.1 µM] | 3.9% | x | x | -1.0% | 0.5% | x | -6.2%
CCC(=O)Nc1ccc(CCC(=O)N2CCCC2)cc1 | x | x | x | x | 5.2% | 2.1% | 7.4% | 19.3%
COc1ccc(NS(=O)(=O)c2ccc3c(c2)[C@H]2C=CC[C@H]2[C@@H](c2ccc(C(=O)O)cc2)N3)cc1 | 7.1%&19.6%[46.1 µM] | u | -9.9% | u | 6.3% | -12.4% | u | 3.1%&23.9%
Cc1cc(Nc2nnnn2-c2ccccc2)n(-c2ccc(Cl)cc2)n1 | -8.9% | u | 1.4% | -2.5% | 14.1% | -8.5% | 5.3% | u
Cc1cc(C)nc(NS(=O)(=O)c2ccc(NC(=O)c3ccccc3C)cc2)n1 | x | x | x | x | 6.6% | 5.2% | 11.4% | 44.2%[activator]
CCc1nnc(NC(=O)CS(=O)(=O)c2ccccc2)s1 | -10.4% | 2.2%[46.1 µM] | x | x | 13.0% | -11.9% | 10.2% | 12.2%
O=C(Nc1cc(Cl)cc(Cl)c1)C1C2C=CC3(O2)C1C(=O)N(CCCN1CCOCC1)C3C(=O)NC1CCCCC1 (configuration not stated) | 5.9% | -19.5%[46.1 µM] | x | x | -0.2% | 1.0% | 4.5% | -3.9%
CC(=O)Nc1ccc(NC(=O)C(C)OC(=O)CC2CCCCC2)cc1 (configuration not stated) | 3.8% | -0.6% | x | x | -2.1% | 6.5% | x | -16.9%
Cc1cccc(-c2nnn3c2nc(NCCc2ccc(S(N)(=O)=O)cc2)c2ccccc23)c1 | u | 22.5%[46.1 µM] | u | -1.5%&-6.3% | 20.6% | 10.0% | 17.6% | u
CC(=O)c1ccccc1C(=O)N1CCCC(CCC(=O)N2CCN(c3ccccn3)CC2)C1 (configuration not stated) | -15.3% | 0.8% | x | x | -6.4% | -4.5% | -14.8% | -6.9%
CCOc1ccccc1-n1nnc(-c2nsc(NC(=O)c3ccc(C)cc3)n2)c1C | -24.4%[46.1 µM] | x | 3.5% | 1.5% | x | x | x | u
CCOC(=O)c1c(NC(=O)CN(C)C)sc(C(=O)N(CC)CC)c1C | -2.1% | -0.5% | 9.5% | 4.7% | 0.2% | 9.2% | 16.2% | 7.5%
S=C(NCCc1ccccc1)Nc1ccccc1 | u | -26.5% | x | x | 19.4% | -11.0% | -11.8% | 39.2%[activator]
O=S(=O)(CCN1CCCCC1)Oc1ccc(Cl)cc1Cl | 6.8%[46.1 µM] | 14.0%[46.1 µM] | x | x | -1.3% | -3.6% | -4.3% | 14.6%
C=CCNC(=S)N/N=C/c1ccc(-c2cccc([N+](=O)[O-])c2)o1 | x | x | x | x | -0.6% | 10.6% | 1.3% | -14.4%
CCN(CC(=O)Nc1c(F)cccc1F)C(=O)c1ccc(N2CCCC2=O)cc1 | -9.6% | -1.4%[46.1 µM] | x | x | -3.8% | 9.6% | x | -9.8%
COc1c(O)cccc1/C=N/NC(=O)Cn1ccnc1C | x | x | x | x | 1.1% | 0.5% | 0.4% | -13.2%
Cc1cc(C)n2nc(C(=O)N/N=C/c3ccco3)nc2n1 | x | x | x | x | 0.1% | 0.8% | 2.5% | -11.2%
COc1ccc(-c2nc(SCC(=O)NCC3CCCO3)c(-c3ccc(C)cc3)[nH]2)cc1OC (configuration not stated) | 1.7%[46.1 µM] | -26.8%[46.1 µM] | u | -8.9% | x | x | x | -14.1%
COc1ccc2[nH]c3c(c2c1)CCN1C(=O)N([C@@H](C)C(=O)NCCc2ccc(OC)c(OC)c2)C(=O)[C@]31C | x | x | x | x | 4.2% | 1.3% | -21.1% | u
Cc1ccc(C(C)C)c(OCC(=O)N2CCC(c3nc4ccccc4o3)CC2)c1 | 1.7%[46.1 µM] | -30.4%[46.1 µM] | u | -10.8% | x | x | x | -26.0%
O=C(CCCn1c(=O)[nH]c2ccsc2c1=O)NCc1cccs1 | -19.8% | 29.3% | -12.7% | 4.9% | 5.0% | -2.2% | 1.4% | 1.6%
Cc1nc(N2CCN(C(=O)c3ccco3)CC2)c2c3c(sc2n1)CC(C)CC3 (configuration not stated) | u | 13µM* | x | x | -6.3% | 0.6% | -54.1% | u
Cc1ccc(NC(=S)N/N=C2/CCCCc3ccccc32)cc1 | x | x | x | x | -2.9% | -0.4% | -52.5% | 24.4%
COc1cccc(NC(=O)n2ncc3c(C)cccc32)c1 | x | x | x | x | -5.5% | u | 4.1% | -62.1%
Cc1ccc(S(=O)(=O)N2CCN(C(=O)COC(=O)c3cc(C)oc3C)CC2)cc1 | 9.0% | -0.6%[46.1 µM] | 18.3% | 2.8% | 1.0% | -7.9% | -9.1% | -8.2%
CC(=O)N(CC(=O)O)c1ccccc1 | 3.5% | u | 16.9% | -1.1% | -25.9% | -0.6% | 9.4% | -12.2%
CCc1cccc(Nc2cnn(C34C[C@@H]5C[C@@H](CC(CC(=O)O)(C5)C3)C4)c(=O)c2Cl)c1 | 11.6% | 5.4%[46.1 µM] | x | x | 10.8% | -9.7% | x | 9.3%
CCOC(=O)N1CCN(C(=O)c2ccc3c(c2)N(Cc2ccc(F)cc2)CCS3)CC1 | x | x | x | x | 1.5% | 15.6% | -29.7% | -11.3%
COc1ccc(C2c3c(-c4ccccc4O)n[nH]c3C(=O)N2Cc2ccco2)cc1OC (configuration not stated) | u | -13.8%[46.1 µM] | x | x | 0.2% | -0.9% | -6.5% | -3.3%
COC(=O)c1sc2cccc(F)c2c1S(=O)(=O)NCc1ccc(Cl)cc1 | 12.3%[46.1 µM] | x | -7.2% | -6.4% | x | x | x | 51.8%[activator]
O=[N+]([O-])c1cccc(S(=O)(=O)N2CCN(c3ccccn3)CC2)c1 | x | x | x | x | -0.1% | -4.1% | 6.1% | 8.4%
COc1ccc(CCNC(=O)CN(c2ccc(OC)c(OC)c2)S(=O)(=O)c2ccccc2)cc1OC | x | x | x | x | 0.4% | 5.9% | 12.4% | -28.2%
COc1ccc(-c2csc3nc(-c4ccc(C)cc4)oc(=O)c23)cc1OC | 1.2%[46.1 µM] | u | -0.5%&2.4% | -1.3%&-4.5% | -7.6% | 10.1% | -2.2% | 5.9%&-1.9%
CCCCN(C(=O)CCCSc1nc2ccccc2[nH]1)c1c(N)n(Cc2ccccc2)c(=O)[nH]c1=O | 5.1% | -14.6% | x | x | -7.9% | -4.7% | -3.5% | -2.2%
COc1ccccc1N1CCN(C(=O)COc2cc(C)cc(C)c2)CC1 | -28.4% | -3.0% | x | x | -3.7% | -6.1% | x | -14.6%
O=c1c2ccccc2nc(SCc2cn3ccsc3n2)n1-c1ccccc1 | u | -8.5%[46.1 µM] | -25.1% | -3.5% | -1.7% | 14.5% | -33.7% | u
CSCCC(NS(=O)(=O)c1ccc2c(c1)oc(=O)n2C)C(=O)NCc1ccccc1 (configuration not stated) | -0.9% | 3.2%&20.9%[46.1 µM] | -13.0% | -0.1% | -0.2% | 0.6% | 4.6% | -6.4%&-16.9%
CCc1c(C(=O)Nc2ccccc2C(N)=O)csc1C | x | x | x | x | -7.9% | -16.1% | -29.3% | 20.4%
O=C(O)c1cc(NN=Nc2cccc(S(=O)(=O)O)c2)cc([N+](=O)[O-])c1 | x | x | x | x | 1.3% | -2.1% | 0.9% | -14.0%
CC(CC(=O)Nc1nnc(C(C)(C)C)s1)c1ccccc1 (configuration not stated) | x | x | x | x | 4.7% | -3.4% | 6.7% | 2.4%
Cc1ccc(-c2nc3c(cnn3-c3ccccc3)c(=O)n2-c2ccc(Cl)cc2)cc1 | -6.0%[46.1 µM] | x | -10.6% | -2.6% | x | x | x | -15.4%
O=S1(=O)c2ccccc2N(Cc2ccccc2Cl)c2ccccc21 | 5.5%[46.1 µM] | x | -4.3% | -0.4% | x | x | x | u
COc1cc([N+](=O)[O-])ccc1NC(=O)C1C2C=CC(C2)C1C(=O)O (configuration not stated) | x | x | x | x | -0.2% | -0.5% | -12.7% | -9.5%
CCCCOC(=O)CSc1nc(N)c(C#N)c(-c2ccc(OCC)cc2)c1C#N | 21.4% | 2.2% | 5.0% | 0.9% | 2.3% | 1.8% | -1.2% | -3.1%
Cc1ccc([N+](=O)[O-])c(Oc2ncnc3c2oc2ccccc23)c1 | 7.9%[46.1 µM] | x | 0.8% | 0.9% | x | x | x | 28.8%
Cc1ccc(NCc2nc3ccccc3n2C)c(C)c1 | u | 2.51µM* | x | x | -2.3% | -11.4% | -6.3% | -0.7%
O=C(O)c1cccc(S(=O)(=O)NCC2COc3ccccc3O2)c1 (configuration not stated) | -1.0%[46.1 µM] | u | x | x | -15.8% | 7.6% | x | -11.8%
COc1cc(/C=C/c2nc(C#N)c(NC(C)c3ccccc3)o2)cc(OC)c1OC (configuration not stated) | u | u | u | 6.7% | x | x | x | -14.3%
Cc1ccc(S(=O)(=O)N(C)c2ccc3sc(C)nc3c2)cc1 | x | x | x | x | -2.0% | 5.0% | -32.8% | u
CCOc1ccccc1N1Cc2ccccc2C1 | -2.4% | -9.0%[46.1 µM] | u | 4.7% | -0.1% | 7.9% | -0.2% | -15.0%
Cc1ccc(CN2CCN(Cc3cnc(N4CCOCC4)s3)CC2CCO)o1 (configuration not stated) | x | x | x | x | 0.5% | 0.5% | -4.9% | -10.7%
CCOC(=O)N1CCN(C2=C(NS(=O)(=O)c3ccc(NC(C)=O)cc3)C(=O)c3ccccc3C2=O)CC1 | x | x | x | x | 1.6% | -20.6% | 5.8% | 0.0%
